Screening data deposited in PubChem BioAssay by several laboratories.
Sa ugtP lethal = compounds lethal to S. aureus RN4220 ugtP deletion mutant | 330,000 tested, 0.54% active | AID 1259309 | growth inhibition, % (test concentration not listed) | OD600 growth, 16 h; some inactives read as strong as hits;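 active = z-score under -3 and OD600 up to 0.15 on both plates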;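 also: plate controls were untreated wells for no effect and antibiotic for full effect; wells of about 80 µL received 100 nL stock; the first replicate is given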
PrP 5UTR inh = suppresses PrP 5' UTR mRNA reporter expression. 340,000 tested, 0.35% active. AID 488862. inhibition, % (concentration not given with the values). cell-based PrP 5' UTR mRNA reporter, plate reader;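 active = every replicate at 50% or more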;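 also: 0 = median of the neutral control wells; tested in H4 reporter cells; numbers are from one replicate; inactives centre near -14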
Autofluor counter = compound fluorescence in toxin protease inhibitor counterscreen; compound autofluorescence counterscreen, microsphere flow cytometry; hits give high values; fluorescence intensity (no concentration beside the values); 360,000 tested, 3.1% active; AID 624483;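 active = at least 3 SD above the mean of all compounds, about 16000 in these data; inconclusive = too few beads counted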;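 also: 100 nL of 1 mM stock went into each well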
RN4220 kill = S. aureus RN4220 growth inhibition; inhibition, % (concentration not given with the values); 330,000 tested, 0.33% active; OD600, 16 h;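 active = z-score of -3 or lower and OD600 up to 0.18 on both plates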;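 also: plate controls were untreated cells for no effect and reference antibiotic for full effect; stock transfer was 100 nL into about 80 µL; one replicate is shown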
BJeLR viability = BJeLR cell viability loss | BJeLR (HRASV12) viability, CellTiter-Glo ATP luminescence, 48 h; reference of the scale not given here | inhibition, % (concentration not given with the values) | 300,000 tested, 0.17% active | AID 1554;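 active = replicate mean above 50%; inconclusive = above 50% but judged a plate artefact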;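 also: 50 nL library stock added to about 25 µL; numbers are from one replicate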
Mtb hypoxia rep = inhibitors of hypoxia-regulated fluorescent reporter in Mycobacterium tuberculosis | fluorescence inhibition, % (no concentration beside the values) | 300,000 tested, 0.1% active | M. tuberculosis hypoxia-regulated fluorescent reporter, fluorescence;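 active = 35 to 45% if threefold the growth effect, above 45% if 1.5-fold the growth effect; inactive = the rest, general growth blockers included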;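 also: wells of about 50 µL received 100 nL stock; 0% = vehicle wells and 100% = reference inhibitor wells; whole bacteria with a GFP reporter of the hypoxia response; strong numbers were not always called active; many hits fall short of the cut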
Mtb hypoxia rep growth = also measured in Mtb hypoxia rep; calls as there; growth inhibition, %; measured here: M. tuberculosis growth (absorbance);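 0% = vehicle and 100% = reference antibiotic; read after six days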
Active calls of the source: *; ? = inconclusive; / = no result given.

SMILES	Sa ugtP lethal	PrP 5UTR inh	Autofluor counter	RN4220 kill	BJeLR viability	Mtb hypoxia rep	Mtb hypoxia rep growth
COc1ccc(OC)c(C=NN=C2SCC(=O)N2Cc2ccco2)c1	4.4	/	/	2.9	/	1.7	3.0
CCOC(=O)c1cc(-c2ccccc2)n(Cc2cc(CC)no2)n1	-1.7	-27.5	4341	7.5	-3.1	1.7	-6.2
Cc1cccc(-c2n[nH]c(=S)n2/N=C/c2ccc(C)o2)c1	/	-18.9	7440	/	2.7	/	/
COc1cc(C(=O)NCCSc2ccccc2)cc(OC)c1OC	-7.4	-23.5	3891	-6.9	0.7	0.9	0.0
COc1ccc(N2CCN(S(=O)(=O)CCNC(=O)COc3cccc(OC)c3)CC2)cc1	-7.9	-9.1	5927	-5.2	-0.9	-8.9	3.4
COc1cc(OC)c2c3c(c(C4CCCCC4)nc2c1)CCC3	56.6	-19.9	2859	-11.2	5.0	7.0	17.9
CS(=O)(=O)N(CC(=O)N1CCOCC1)c1cccc([N+](=O)[O-])c1	6.2	-38.9	4432	5.6	-2.5	10.3	0.0
CCC1CN(C(=O)N2CCC(C(=O)NCc3ccco3)CC2)c2ccccc2O1 (stereo not drawn)	3.7	-5.1	5294	-0.5	5.9	5.9	10.8
COc1cccc(CNn2c(-c3cccc(C)c3)nc3ccccc3c2=O)c1	-8.5	-23.6	7905	4.9	-8.4	8.7	3.2
NS(=O)(=O)c1cnccc1Nc1cccc(F)c1	2.7	-20.2	4238	0.7	-8.6	11.3	-6.4
O=Nc1c(O)[nH]c2ccc(F)cc12	4.2	5.6	2107	4.7	6.2	-0.5	11.4
Cc1ccc(SCC(=O)OCC(=O)NCCC2=CCCCC2)cc1	5.1	-13.0	6269	2.8	-0.5	5.2	9.8
COc1ccc(/C=N/N(C)c2cc(=O)n(C)c(=O)[nH]2)cc1OC	/	-7.7	2540	/	-1.9	/	/
O=C(Nc1ccc(NC(=O)C2CC2)nc1)c1ccco1	4.4	-40.5	4670	0.7	-0.3	/	/
Cc1cc(C)n(C(=O)CNC(=O)c2cccs2)n1	1.4	-6.7	3565	1.0	-3.3	3.0	5.5
O=C(COc1cc(Cl)c(Cl)cc1Cl)NC(=O)NC1CCCC1	-0.7	-16.6	2949	16.1	-0.1	/	/
Cc1c(Cl)cccc1NC(=O)CC(C(=O)O)C1CCCO1 (stereo not drawn)	-10.2	-26.7	22699*	5.3	-5.7	13.1	10.7
CC(C)OCC(O)CN1CC2C[C@@H](C1)Cn1c2cccc1=O (stereo partly drawn)	-1.3	-2.8	3686	1.2	3.5	2.1	-1.8
COC(=O)c1sc(S(=O)(=O)N2CC(C)OC(C)C2)c(C(=O)OC)c1C (stereo not drawn)	8.5	-16.3	9302	8.1	/	10.6	2.5
CCOC(=O)c1c(NC(=O)CSc2nnc(-c3ccc(C)cc3)o2)sc(C(C)=O)c1C	-4.8	-4.9	6068	19.1	/	1.0	-10.0
O=C(Nc1nnc(S(=O)(=O)N2CCCCCC2)s1)c1ccccc1F	31.3	-17.2	5136	39.8	6.1	-2.9	2.8
Cc1cccc(NC(=O)c2ccc3ccccc3n2)c1C	5.1	-93.3	3375	1.6	4.4	4.7	-2.6
O=C(NCc1ccccn1)c1c(O)c2c([nH]c1=O)CCCC2	-0.7	-37.1	9064	-1.5	2.8	-3.2	-11.5
CC(=O)C1=C(C)NC(SCc2cccc3ccccc23)=C(C#N)C1c1ccco1 (stereo not drawn)	-9.4	-10.2	2492	0.1	2.8	-6.2	-6.8
CC(C)CCNC(=O)CCNS(=O)(=O)c1ccc(Cl)cc1	5.1	-5.3	19689*	7.2	3.2	2.3	-2.2
SMILES	Sa ugtP lethal	PrP 5UTR inh	Autofluor counter	RN4220 kill	BJeLR viability	Mtb hypoxia rep	Mtb hypoxia rep growth
CC(C)[C@@H](CSc1ccccc1)N1CCN(Cc2ccccc2)CCC1=O	/	-6.3	3862	/	-3.5	/	/
Cc1ccc(S(=O)(=O)Oc2ccc(C=N/N=C3/NC(=O)C(CC(=O)O)S3)cc2)cc1[N+](=O)[O-] (stereo not drawn)	2.3	/	/	2.1	/	2.4	-5.1
O=C(NC1CCCCC1)c1ccc(S(=O)(=O)N2CCOCC2)cc1	3.8	-2.7	10405	1.6	-8.6	5.5	6.5
COc1ccc(-c2csc3nc(C)nc(N4CCN(C(C)=O)CC4)c23)cc1OC	1.1	-8.7	4331	1.4	-4.8	9.9	6.8
O=C(COC(=O)Cc1cccs1)Nc1cccc(S(=O)(=O)N2CCOCC2)c1	-0.6	1.4	5919	3.8	0.3	-14.0	5.4
COc1ccc(C2Nc3ccccc3C(=O)N2O)cc1CN1CCOCC1 (stereo not drawn)	4.4	-21.3	2398	4.9	-14.8	5.7	9.4
O=C(O)CSC(=S)N1CCCC1	-2.4	-13.2	4103	2.5	-6.7	13.5	8.9
Cc1ccc(C(C)C)c(Oc2nnnn2-c2ccccc2)c1	27.5	-7.5	8190	9.3	-9.9	9.7	4.1
COC(=O)c1cc(S(=O)(=O)N2CCN(c3cccc(C)c3)C(C)C2)c[nH]1 (stereo not drawn)	4.4	-8.0	5671	3.6	-1.0	-7.2	-0.8
CCN(CC)C(=O)CSc1n[nH]c(=O)n1CCc1ccccc1	1.0	-2.1	5908	0.4	5.5	16.3	0.6
Cc1sc2nc(COC(=O)c3ccc(N4CCCC4)c([N+](=O)[O-])c3)[nH]c(=O)c2c1C	-4.6	-11.0	3837	5.3	-3.9	8.6	1.4
CCCCOc1ccc(C(=O)NCC(=O)NC(C)CCc2ccccc2)cc1 (stereo not drawn)	11.4	-20.8	6759	-12.6	-2.0	2.4	-15.5
CC(C)CNC(=O)COCc1cc(-c2ccc3c(c2)OCO3)on1	4.1	-30.4	3127	3.5	-1.8	13.1	3.1
COc1ccc(OC)c(S(=O)(=O)N2c3cc(F)ccc3CCC2C)c1 (stereo not drawn)	3.5	-9.6	7080	9.1	-5.0	12.5	1.8
Cc1ccc(CNC(=O)/C=C/C(=O)O)cc1	5.1	-27.5	3893	-0.9	-5.4	7.6	3.4
COc1ccc(CNc2nc3ccccc3n2CCN2CCCCC2)c(OC)c1	-9.7	-1.7	15231	8.4	7.8	5.1	1.4
Cc1ccc(C=NNC(=O)CSc2nc3ccccc3c(=O)n2-c2ccccc2)s1	-33.9	/	/	0.0	/	-1.5	8.8
O=C(NCc1ccc(-c2nc3ccccc3s2)cc1)c1cc2ccccc2o1	0.3	-0.5	2429	3.2	-4.2	9.0	4.9
Fc1cc(NC(=S)NCc2ccc(CNC(=S)Nc3ccc(Cl)c(F)c3)cc2)ccc1Cl	-8.9	-8.5	4390	-1.4	0.0	11.3	-3.1
CCCc1cc(C(=O)NC2CCCN(Cc3ccccc3F)C2)no1 (stereo not drawn)	5.5	-9.0	4374	1.4	4.6	5.4	-0.4
CCCc1nc(SCC(=O)N2CCCC2)c2ccccc2n1	-2.5	-22.8	8990	1.3	0.5	17.7	8.3
O=C(Nc1ccc2c(c1)oc1ccccc12)C1CC1	0.8	-54.3	4942	-7.3	2.2	/	/
CN(Cc1cccnc1)C(=O)CC1C(=O)NCCN1Cc1ccc(-c2ccccc2)cc1 (stereo not drawn)	3.9	-30.8	4932	3.6	3.2	2.7	13.5
COc1ccc(-n2nnnc2SCC(=O)NCc2cccs2)cc1	3.5	-16.7	4224	6.2	-12.7	9.2	9.9
COc1ccccc1NS(=O)(=O)c1cccc(C(=O)N2CC(C)OC(C)C2)c1 (stereo not drawn)	-0.4	-15.6	5121	6.8	7.3	-2.4	-2.0
SMILES	Sa ugtP lethal	PrP 5UTR inh	Autofluor counter	RN4220 kill	BJeLR viability	Mtb hypoxia rep	Mtb hypoxia rep growth
COc1ccc(S(=O)(=O)N2CCN(c3ccc(F)cc3)CC2)cc1C(=O)N1CCCC1	11.7	-12.0	3287	6.7	-4.3	-8.2	-3.8
Cc1cccc(Nc2c(O)nc[nH]c2=O)c1	3.6	-24.0	3398	2.3	/	5.4	7.5
COc1ccc(NC(=O)Nc2ccc3c(c2)C(=O)N(C(C)CO)CC(C)C(CN(C)S(C)(=O)=O)O3)cc1 (stereo not drawn)	9.9	/	/	9.5	/	8.8	5.9
COc1ccc(NS(=O)(=O)c2ccc(Cl)c(C(=O)O)c2)cc1S(=O)(=O)N1CCCCC1	4.9	-12.8	4561	-1.1	7.3	-0.1	20.8
COC(=O)CSc1nccc(-c2ccc(F)cc2)c1C#N	7.5	31.0	3311	12.9	3.4	-5.1	-2.5
O=Cc1cnc2ccccc2c1-c1ccccc1	6.6	-29.1	3648	4.3	2.0	-1.6	-0.5
CCn1c(=NC(=O)CSC(C)=O)sc2ccccc21	5.8	-13.9	2182	-2.4	-0.2	/	/
CCOc1ccc(-n2c(C)cc(/C=N/Nc3nc(C)cc(=O)[nH]3)c2C)cc1	/	-25.0	4992	/	1.6	/	/
O=C1C(=O)N(Cc2cccc([N+](=O)[O-])c2)c2ccccc21	-2.8	-10.3	2091	2.9	-10.4	8.9	10.0
O=C(O)c1ccc(NN=Cc2ccc(-c3ccc(Cl)cc3Cl)o2)cc1	70.6	/	/	54.1	/	7.2	9.2
COc1ccccc1CN(C)C(=O)C1(c2ccc(Cl)cc2)CC1	13.5	-7.9	9889	9.5	-3.2	10.1	7.4
O=C(CSc1nc(-c2ccccc2Cl)ns1)NCc1ccc2c(c1)OCO2	-2.5	-9.2	2410	-3.7	-7.4	2.8	11.7
Nc1c(C(=O)c2ccco2)oc2ccccc12	0.9	/	/	3.8	7.2	10.9	15.1
COc1cc(-c2cc(-c3ccc(O)cc3)nc(N)c2C#N)ccc1O	4.6	-19.6	3582	10.2	-5.1	4.6	-2.5
O=C(O)c1cc2ncc(-c3[nH]ncc3[N+](=O)[O-])cn2n1	-5.2	-4.0	1995	-1.2	9.1	-1.0	5.0
c1ccc2c(Nc3nncs3)c3ccccc3nc2c1	0.4	-17.7	4063	0.6	-1.4	-0.8	8.0
CCOc1ccc(CCNC(=O)c2cc([N+](=O)[O-])ccc2N2CCOCC2)cc1OCC	0.7	-1.0	?	-0.4	-1.6	7.5	18.3
COc1cc(CN2CCc3ccc(NC(=O)CCc4ccccc4OC)cc3C2)ccc1O	2.7	-12.5	5702	-5.7	-2.2	-9.0	2.0
O=C(CSc1nc2ccc(Cl)cc2[nH]1)NCCc1ccccc1	12.9	-4.2	6683	7.6	5.1	-5.4	-5.3
O=C(CN1CCN(CC(=O)Nc2ccccc2F)CC1)Nc1ccc2c(c1)OCCO2	-2.2	-17.1	2608	0.9	1.3	5.3	5.9
CCC(C)C(NC(=O)c1ccc(Cl)cc1Cl)C(=O)O (stereo not drawn)	2.6	-35.0	2326	5.9	-1.3	13.9	6.6
O=C(CCc1n[nH]c(=O)[nH]c1=O)N/N=C/c1ccc(Br)o1	/	2.9	2024	/	-3.3	/	/
CCOC(=O)N1CCC(N2C(=O)c3ccccc3C2Nc2ccc(S(=O)(=O)N3CCOCC3)cc2)CC1 (stereo not drawn)	2.9	-29.4	4779	2.7	-1.5	13.6	1.0
O=C(COc1ccccc1F)N1CCN(S(=O)(=O)/C=C/c2ccccc2)CC1	4.4	-17.8	2368	-0.3	-3.7	-13.2	-2.1
O=C(NCC1CCN(c2ccc(S(=O)(=O)N3CCOCC3)cc2)CC1)c1cccc(Cl)c1	-0.8	-19.0	18496*	4.2	-1.8	0.7	21.5
CCNc1ccc(C(=O)O)cc1N	0.1	4.9	2181	4.1	11.3	16.5	1.7
CCc1ccc2oc(-c3cc(N)cc(C)c3O)nc2c1	-0.7	-128.9	5149	-2.1	/	/	/

Ordered by molar mass (falling): some entries from above
SMILES	Sa ugtP lethal	PrP 5UTR inh	Autofluor counter	RN4220 kill	BJeLR viability	Mtb hypoxia rep	Mtb hypoxia rep growth
CCOc1ccc(-n2c(C)cc(/C=N/Nc3nc(C)cc(=O)[nH]3)c2C)cc1	/	-25.0	4992	/	1.6	/	/
O=C(CCc1n[nH]c(=O)[nH]c1=O)N/N=C/c1ccc(Br)o1	/	2.9	2024	/	-3.3	/	/
O=C1C(=O)N(Cc2cccc([N+](=O)[O-])c2)c2ccccc21	-2.8	-10.3	2091	2.9	-10.4	8.9	10.0
Nc1c(C(=O)c2ccco2)oc2ccccc12	0.9	/	/	3.8	7.2	10.9	15.1

Reformatted: results already given
Structure | Sa ugtP lethal | PrP 5UTR inh | Autofluor counter | RN4220 kill | BJeLR viability | Mtb hypoxia rep | Mtb hypoxia rep growth
COc1ccc(N2CCN(S(=O)(=O)CCNC(=O)COc3cccc(OC)c3)CC2)cc1 | -7.9 | -9.1 | 5927 | -5.2 | -0.9 | -8.9 | 3.4
CC(C)CCNC(=O)CCNS(=O)(=O)c1ccc(Cl)cc1 | 5.1 | -5.3 | 19689* | 7.2 | 3.2 | 2.3 | -2.2
